Source: PubChem
VDR inh: vitamin D3 receptor (human) inhibition. VDR-SRC2-3 peptide fluorescence polarization, 2 h. Potency, µM, for the others: max response, negative = inhibition, hits mostly inhibitors. 0.93% of 400,000 active; active means well fitted inhibition curve with a large enough effect; inconclusive means small, poorly fitted or top-dose-only effect, or another doubt; inactive means no such curve, though single readings can be large or run the other way; further: series mostly up to about 120 µM
Target sequence (P11473 whole entry, looked up): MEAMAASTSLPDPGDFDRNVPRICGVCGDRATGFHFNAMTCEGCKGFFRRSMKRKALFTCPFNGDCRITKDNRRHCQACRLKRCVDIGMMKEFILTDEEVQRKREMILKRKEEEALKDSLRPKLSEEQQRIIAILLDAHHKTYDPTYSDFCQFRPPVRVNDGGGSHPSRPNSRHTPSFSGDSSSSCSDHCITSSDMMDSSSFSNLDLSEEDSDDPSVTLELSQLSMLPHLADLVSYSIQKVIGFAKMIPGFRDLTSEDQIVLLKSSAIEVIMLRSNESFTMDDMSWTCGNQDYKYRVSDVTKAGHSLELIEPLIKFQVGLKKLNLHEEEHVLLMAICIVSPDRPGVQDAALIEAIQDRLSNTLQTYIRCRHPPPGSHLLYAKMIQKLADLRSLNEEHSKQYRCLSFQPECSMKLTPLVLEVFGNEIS
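Reagent solutions, kept cold and dark, are dispensed first; compounds are then pinned in at 23 nl, plates briefly spun, and incubated 2 h at ambient temperature. Inhibition of VDR–SRC2-3 peptide binding is read by fluorescence polarization.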
The depositor's hits bear a star; ? = inconclusive; & = joins results of further samples. On the % scale 0 is the no-effect control and ±100 the full control effect; potency means the concentration at half of the fitted maximal effect. Some of the compounds tested; rates above refer to the full screens.

Sample of the layout:
Molecule	VDR inh
Cc1c(C(=O)N2CCCCCC2)c(S(=O)(=O)N(Cc2ccccc2)C(C)(C)C)c(C)n1C	8%
COc1ccc(CC(=O)Nc2ccc(-c3noc(COc4ccccc4C)n3)cc2)cc1	7%
COCCNCC#CCOc1ccc(OC)cc1	9%
O=C(CCc1nc(-c2ccccc2Cl)no1)NC1CCCC1	-15%
Cc1ccccc1NC(=S)C1=C(O)c2sccc2N(C)S1(=O)=O	?

All compounds of this part, from the first entry:
Molecule	VDR inh
Cc1c(C(=O)N2CCCCCC2)c(S(=O)(=O)N(Cc2ccccc2)C(C)(C)C)c(C)n1C	8%
COc1ccc(CC(=O)Nc2ccc(-c3noc(COc4ccccc4C)n3)cc2)cc1	7%
COCCNCC#CCOc1ccc(OC)cc1	9%
O=C(CCc1nc(-c2ccccc2Cl)no1)NC1CCCC1	-15%
Cc1ccccc1NC(=S)C1=C(O)c2sccc2N(C)S1(=O)=O	?
CC(C)C(C)(C#N)NC(=O)CSc1nnc(-c2ccncc2)n1Cc1ccccc1 (centres undefined)	?
CCOc1ccc(CC(=O)NCCc2csc3nc(-c4ccccc4F)nn23)cc1	13%
CCOC(=O)c1ccc(NC2(c3ccccc3)C(=O)c3ccccc3C2=O)cc1	-8%
COCCNc1nc2c(c(=O)n(Cc3ccc(OC)cc3)c(=O)n2C)n1C	16%
O=C(NC(=S)Nc1ccccc1N1CCOCC1)c1ccc([N+](=O)[O-])cc1	-18%
COc1ccc(CNc2ncnc3c2c(-c2ccccc2)cn3-c2ccccc2)cc1	-2%
O=C(CC1CCCC1)NCCS(=O)(=O)N1CCN(c2ccccc2F)CC1	10%
COc1ccccc1OCCNC(=O)c1ccccc1C	-4%
O=C(Nc1nnc(CCc2ccccc2)s1)c1ccccc1F	-21%
O=C(CN1CCN(c2ccccc2)CC1)Nc1ccc(OCc2ccccc2)cc1	2%
O=C(NCc1cccc2[nH]ccc12)C1CCC(=O)N(CCc2ccc(Cl)cc2)C1 (centres undefined)	-19%
O=C(CN(Cc1ccc(F)cc1)C(=O)CCC(=O)Nc1nccs1)NCC1CCCO1 (centres undefined)	-9%
COCc1cc(=O)n2[nH]cc(-c3ccccc3)c2n1	-5%
CCCN(CCC)Cc1c(C(=O)N/N=C/c2ccco2)nnn1-c1nonc1N	-1%
C/C(=N/NC(=O)CCc1ccccc1)c1ccco1	-19%

The list continues:
Molecule	VDR inh
CC1CCCCN1C(=S)NCCc1ccccc1 (centres undefined)	4%
CC(=O)N1CCc2cc(Br)cc(S(=O)(=O)N3CCC(C(=O)O)CC3)c21	-10%
CCCNC(=O)c1c(NC(=O)c2ccccc2)sc2c1CCC(C(C)(C)C)C2 (centres undefined)	-25%
CC(C)[C@H](NC(=O)Nc1ccc(Oc2ccccc2)cc1)C(=O)O	8%
O=C(O)CC12CC3CC(C1)CC(n1ncc(NCC4CCCO4)c(Cl)c1=O)(C3)C2 (centres undefined)	6%
CS(=O)(=O)Nc1cccc(C2=NN(C(=O)CCC(=O)O)C(c3cccs3)C2)c1 (centres undefined)	5%
COc1ccc(OC)c(NC(=O)CCCN2C(=O)C3C4C=CC(C4)C3C2=O)c1 (centres undefined)	-12%
O=C(c1ccccc1)N1CCN(Cc2ccccc2C(F)(F)F)CC1	?
CC(=O)N(C)c1ccc(N2CCOCC2)c2c1C(=O)c1ccccc1C2=O	7%
O=C(NCC1CCCO1)C1CC(=O)N(c2ccccc2)C1 (centres undefined)	3%
Cc1nonc1CN(C)C(=O)CC1C(=O)NCCN1Cc1ccccc1C(F)(F)F (centres undefined)	-1%
Cc1ccc(OCC(=O)NNC(=O)[C@@H]2CCCC[C@@H]2C(=O)O)c(Br)c1	-12%
Cc1ccc(S(=O)(=O)N2CCC(C(=O)Nc3cc(C(F)(F)F)ccc3N3CCOCC3)CC2)cc1C	-11%
CCN1CCSc2ccc(C(=O)NCc3ccc(OC(C)C)cc3)cc21	-23%&-9%
CCc1ccccc1NC(=O)CSc1nncn2c1cc1oc(C)cc12	6%
CNCCOc1ccccc1C(C)(C)C	-16%
COc1ccc(CNC(=O)Cn2c(=O)oc3cc(S(=O)(=O)N4CCCCCC4)ccc32)cc1	10%
Cc1cc(OCC(=O)NCCc2nc3ccccc3[nH]2)cc(C)c1Cl	-1%
CCc1ccc(NC(=O)CSCc2ccc(C(=O)O)cc2)cc1	-5%
CCN1C(=O)[C@H]2[C@@H](c3ccc(Cl)cc3)N3C(=O)CN(CC4CC4)C(=O)[C@@]3(C)[C@H]2C1=O	-18%

More results
Molecule	VDR inh
Nc1ncnc2c1ncn2[C@@H]1O[C@H](COP(=O)(O)OP(=O)(O)OP(=O)(O)OP(=O)(O)OC[C@@H]2O[C@H](n3cnc4c(N)ncnc43)[C@@H](O)[C@H]2O)[C@@H](O)[C@H]1O	-6%&6%
O=C(NC1CCCCC1)c1ccc2c(c1)OCO2	-1%
CC(=O)c1c(C)[nH]c(C(=O)Nc2cc(S(=O)(=O)N3CCCCC3)ccc2C)c1C	-7%
O=C(Cc1cccc(NC(=O)C2CCCN(C(=O)CCc3ccccc3)C2)c1)Nc1ccc(C(=O)N2CCCCC2)cc1 (centres undefined)	-13%
CCCCn1c(N)c(N(CC)C(=O)c2ccc(C#N)cc2)c(=O)[nH]c1=O	3%
CCc1cccc(NC(=O)c2ccc(Br)o2)c1	-11%
O=C(OCCOc1ccccc1F)c1cccc(S(=O)(=O)N2CCOCC2)c1	-11%
O=C1CCC([N+](=O)[O-])C(c2ccccc2C(F)(F)F)N1 (centres undefined)	-16%
O=C(Nc1nc(-c2cccc(Br)c2)cs1)Oc1ccccc1	13%
CCCCOc1ccc(-c2csc(N)n2)cc1[N+](=O)[O-]	-16%
COc1cccc(C2(O)C(=O)Nc3ccccc32)c1 (centres undefined)	-9%
COc1ccc(NC(=O)CN2C(=O)NC3(CCCC3)C2=O)cc1OC	17%
Cc1ccc(NC(=O)c2cc(NC(=O)c3ccco3)ccc2N2CCOCC2)cc1Cl	6%
NC(=O)c1ccc(=O)n(Cc2ccc(Cl)cc2Cl)c1	0%
CC(C)c1c(C(=O)N/N=C/c2ccncc2)nnn1-c1nonc1N	12%
CN(C)CCNC(=O)C1(O)c2cc(Br)ccc2NC(=O)N1c1ccc(Cl)cc1 (centres undefined)	-16%
COC(=O)[C@H](CC(C)C)NC(=O)N1CCC(C)CC1	-2%
O=C(COC(=O)c1ncc(Cl)c(Cl)c1Cl)NC(=O)c1ccccc1	11%
O=C(Nc1cccnc1Cl)c1ccc(S(=O)(=O)N2CCCCCC2)cc1	0%
O=C1C(=O)c2ccccc2C(O)=C1c1cccc([N+](=O)[O-])c1	-16%

Continued:
Molecule	VDR inh
CCOc1ncccc1C(=O)OCC(=O)c1ccccc1	-16%
Cc1c(CCC(=O)NCCCCCC(=O)O)c(=O)oc2cc3occ(-c4ccccc4)c3cc12	-3%
O=C(Nc1ccc(Oc2ccc3c(c2)C(=O)N(c2ccc(O)cc2)C3=O)cc1)c1cccs1	9%
CC(C)[C@H](NC(=O)c1ccccc1Cl)C(=O)OCC(=O)NC(=O)NCc1ccco1	-2%
CC(C)C[C@@H](CC(=O)N[C@H](CC(=O)N[C@@H]1CCCC[C@H]1C(=O)N[C@H](CC(=O)N[C@@H](CCC(=O)O)CC(=O)O)Cc1ccccc1)C(C)C)NC(=O)[C@@H]1CCCC[C@H]1N	-3%
CCOCCCNC(=O)C1CCN(c2nc3ccc(C)cc3[nH]2)CC1	8%
C/C=C/C(=O)Nc1cccc(C2=NOC3(C2)C[C@@H](C(N)=O)N(C(=O)c2cc([N+](=O)[O-])cc([N+](=O)[O-])c2C)C3)c1 (some centres undefined)	-29%
COc1ccc2[nH]cc(CCNc3ccnc(-c4cccnc4)n3)c2c1	-2%
FC(F)(F)Oc1ccc2c(c1)NC(c1ccncc1)=NC(c1cccs1)=N2	0%
Nc1nc(SCc2ccc(Cl)cc2Cl)n[nH]1	11%
O=S(=O)(c1cccc(COc2c(Cl)cccc2Cl)c1)N1CCOCC1	4%
O=C(NCCNC[C@@H](O)COc1ccc(O)cc1)N1CCOCC1	-10%
COC(=O)c1sc(NC(=O)C(C)C)c(C(=O)OC)c1C	-3%
OC[C@H]1O[C@@H](Oc2ccc(O)cc2)[C@H](O)[C@@H](O)[C@@H]1O	-8%
CN(c1ccccc1)S(=O)(=O)c1cccc(C(=O)NC2CCCC2)c1	-18%
CC(=O)Nc1ccc(SCC(=O)N(C)CC(=O)Nc2ccccc2Cl)cc1	79µM*
CC(C)[C@H](NC(=O)c1ccc(C(C)(C)C)cc1)C(=O)N1CCN(Cc2ccc3c(c2)OCO3)CC1	-10%
CCN(C(=O)Cn1c(=O)n(-c2cc(OC)c(OC)c(OC)c2)c(=O)c2ccccc21)c1cccc(C)c1	-15%
O=C(c1ccco1)N1CCN(C(=O)c2cnn(-c3cccc(F)c3)c2C2CCNCC2)CC1	-7%&21%
COc1ccc(Nc2ccc3cc(S(=O)(=O)N4CCCC4)ccc3n2)cc1Cl	5%

In another format: 7 of the compounds above.
VDR inh | Structure
4% | O=S(=O)(c1cccc(COc2c(Cl)cccc2Cl)c1)N1CCOCC1
-10% | O=C(NCCNC[C@@H](O)COc1ccc(O)cc1)N1CCOCC1
-3% | COC(=O)c1sc(NC(=O)C(C)C)c(C(=O)OC)c1C
-8% | OC[C@H]1O[C@@H](Oc2ccc(O)cc2)[C@H](O)[C@@H](O)[C@@H]1O
-18% | CN(c1ccccc1)S(=O)(=O)c1cccc(C(=O)NC2CCCC2)c1
79µM* | CC(=O)Nc1ccc(SCC(=O)N(C)CC(=O)Nc2ccccc2Cl)cc1
-10% | CC(C)[C@H](NC(=O)c1ccc(C(C)(C)C)cc1)C(=O)N1CCN(Cc2ccc3c(c2)OCO3)CC1

The listing continues.
Molecule	VDR inh
CCCCN(c1ccccc1)c1ncnc(N)c1[N+](=O)[O-]	17%
Cc1ccc2nc(=O)c(NNc3ccccc3)cnc2c1	-20%&4%
CN(C)CCN(C(=O)C1CCN(S(=O)(=O)c2cccs2)CC1)c1nc2ccc(F)cc2s1	16%
CCN1CCN(C(C)C(=O)NC2CCCCC2)CC1 (centres undefined)	-27%
O=C(Cn1c(=O)oc2cc(S(=O)(=O)N3CCCC3)ccc21)Nc1ccc(F)cc1F	3%
CCc1ccc(CNC(=O)c2cc3c(C)nc4ccccc4c3o2)cc1	-21%
COc1cc(NC(=O)C2CC2C)c(C(=O)O)cc1OC (centres undefined)	-6%
Cc1onc(-c2c(Cl)cccc2Cl)c1COC(=O)c1ccc(Cl)cc1	-5%
C=CCC(NC(=O)Cc1ccccc1)C(=O)NCCC (centres undefined)	-6%
N#CCCN(C(=O)Cn1nc(C(=O)O)c2ccccc2c1=O)c1ccccc1	-1%
Cc1c(NC(=S)NC(=O)c2cccc(Cl)c2)c(=O)n(-c2ccccc2)n1C	-17%
O=C(c1ccc(Cl)cc1[N+](=O)[O-])N1CCc2ccccc2C1	-3%
O=C(Oc1cccc(C(=O)N2CCOCC2)c1)c1ccc(Br)cc1	2%
CC(=O)c1c(C)[nH]c(C(=O)N2CCN(c3ncccn3)CC2)c1C	-15%
Cc1ccc(-c2nn(-c3ccc(F)cc3)cc2C(=O)NC2CCC(O)CC2)cc1 (centres undefined)	-20%
CCCN(CCC)c1nc2ccccc2n2c(C)nnc12	-11%
Cc1cc(=O)oc2c(C)c(OCC(=O)N3CC[C@@]4(O)CCCC[C@H]4C3)ccc12	-5%
CC(C)(C)C(=O)N(Cc1ccc(Cl)cc1)c1cnccn1	5%
CC(C(=O)NC1CCCCC1)N1CCN(S(=O)(=O)c2cccs2)CC1 (centres undefined)	9%
O=C(Nc1ccc(Br)cc1)c1cccc(-n2cnnn2)c1	-10%

Additional compounds:
Molecule	VDR inh
Cn1nc(C(F)(F)F)c(-c2ccc(Br)cc2)c1NC(=O)Nc1ccc(F)cc1F	5%
CCN1C(=O)c2ccccc2S(=O)c2ccc(C(=O)N3CCCCCC3)cc21 (centres undefined)	5%
CCOC(=O)c1ccccc1OCc1cc(/C=N/n2cncn2)ccc1OC	-12%
O=[N+]([O-])c1cc(/C=N/O)ccc1Oc1cccc(Cl)c1	-5%
Cc1cc(C)c(S(=O)(=O)c2ccc(F)cc2C)c(Cl)n1	-10%
Cc1cc(C)nc(SCC(=O)NC2=NN=C(c3ccc(Br)cc3)CS2)n1	45µM*
Cc1cccc(NC(=O)C(C)Sc2nc3nc(C)cc(C)n3n2)c1 (centres undefined)	12%
CCN(CC)C(=O)CSc1nc2cc3c(cc2c(=O)n1Cc1ccco1)OCO3	-3%
CCOC(=O)CNC(=S)N(CCCN1CCCCCC1)Cc1cccs1	-6%
O=C1c2ccccc2NC(c2c(Cl)cccc2Cl)N1Cc1ccccc1 (centres undefined)	14%
Cc1cc(Br)c(NC(=O)c2ccccc2[N+](=O)[O-])cc1C	3%
CCOC(=O)CNC(=O)Nc1ccccc1C(=O)OC	6%
COc1cccc(CNC(=O)COc2cc(=O)n(C)c3ccccc23)c1	-28%
CCOC(=O)C[C@H]1c2cc(C(F)(F)F)ccc2S(=O)(=O)N1C(C)C	0%
COc1cc(NC(=O)CCc2c(C)noc2C)c(Cl)cc1C(=O)O	10%
CCCCNC(=O)OC(C)CNC(=O)Oc1cccc(C)c1 (centres undefined)	2%
COc1ccc(C(=O)NC(Nc2ccc(C)cc2)C(Cl)(Cl)Cl)cc1 (centres undefined)	-13%
Cc1ccc(C)c(CN2CCC(CNC(=O)Nc3ccc(Br)cc3F)CC2)c1	5%&-4%
